Bioassay records from PubChem.
MT1-MMP act inh = MT1-MMP (human) activation inhibition; GFP/RFP ratio change, % at 20 µM; 360,000 tested, 0.061% active; HT1080 RFP-PRO-GFP cells, GFP/RFP ratio fluorescence, overnight; percent of plate control window, DMSO zero;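 active = GFP/RFP ratio change of at least 30% with cell ATP level not reduced by more than half and red fluorescence within 50% of control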; note: strong numbers were not always called active
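Assay system: HT1080 cells carrying an RFP-PRO-GFP reporter | Dosing: Single dose of 20 µM compound, 1% DMSO final | Incubation: Cells overnight before dosing, compound overnight, 37 °C, 5% CO2 | Evaluation: GFP/RFP fluorescence ratio | Control set: DMSO and RFP-L50D-GFP cell wells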
eIF4H FP inh = inhibitors of RNA binding by human eIF4H; inhibition, % at 35 µM; 290,000 tested, 0.94% active; eIF4H fluorescence polarization binding assay; AID 2012; Q15056;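 active = 50% or more with normal probe brightness, or confirmed in later tests; inconclusive = above 50% with abnormal brightness, or retests that disagree; inactive = below 50% or failed in later tests; about a fifth of its hits are not listed in these tables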;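 note: calls also rest on retests at 20 µM and on dose response follow-up; 0% = protein and probe with vehicle and 100% = probe without protein; strong numbers were not always called active; many hits fall short of the cut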
CSC inhib = blocks cancer stem cells | inhibition, % at 7.5 µM | AID 2717 | cancer stem cell-like cells viability, luminescence | 300,000 tested, 1.1% active;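 active = mean at 75% or more and at least half the replicates too; inconclusive = mean and replicates disagree; tested in HMLE shEcad cells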;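 note: 0% = median of negative and 100% = median of positive control wells; the first replicate is given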
Yeast UUG start = yeast start codon fidelity modulation; activity score, % at 18.7 µM; 350,000 tested, 0.13% active; S. cerevisiae UUG-firefly luciferase reporter, luminescence/redox ratio;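 active = replicate mean at a twofold rise or more, about +100% in these data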;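 note: firefly luciferase made from a UUG start codon reports start codon fidelity; reporter light over untreated wells divided by growth signal over untreated wells; some hits fall short of that in this replicate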
Env fusion inh = HIV envelope-mediated fusion inhibition; inhibition, % at 12.3 µM; AID 651610; HeLa-JRFL Env/CEM21 cell fusion, luciferase; 360,000 tested, 1.1% active;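 active = mean replicate inhibition score of at least 50 and every replicate individually at or above 50; inconclusive = only one of the two criteria met; inactive = mean below 50 and not all replicates reaching 50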;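 note: 0% = plate neutral controls and 100% = maraviroc near 300 nM; one replicate is shown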
Rce1 inh = yeast Ras-converting enzyme inhibition. Q03530. yeast membranes, quenched prenylated peptide cleavage fluorescence. calls only. 290,000 tested, 0.27% active;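 active = fall in fluorescence gain of 50% or more versus controls, with final raw signal at or below 3038400; inconclusive = same 50% fall but final raw signal above 3038400; inactive = fall in fluorescence gain under 50%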;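 note: plate controls were neutral control wells for no effect and wells lacking membranes for full effect; tested at 10 µM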
Target sequence (Q03530 whole entry, looked up): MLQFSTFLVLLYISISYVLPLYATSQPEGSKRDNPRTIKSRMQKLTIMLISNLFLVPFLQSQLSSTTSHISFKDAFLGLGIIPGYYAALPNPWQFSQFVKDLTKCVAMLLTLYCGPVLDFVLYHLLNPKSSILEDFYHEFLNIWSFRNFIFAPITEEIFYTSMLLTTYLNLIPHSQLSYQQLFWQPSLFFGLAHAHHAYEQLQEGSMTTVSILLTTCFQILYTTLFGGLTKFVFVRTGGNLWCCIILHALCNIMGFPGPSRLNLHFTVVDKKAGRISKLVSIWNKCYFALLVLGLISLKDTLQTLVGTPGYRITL
PABP FP inh = blocks human PABP binding to poly(A) RNA; 290,000 tested, 1% active; fluorescence polarization; AID 2014; P11940; inhibition, % at 35 µM;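 active = 50% or more with normal probe brightness, or confirmed in later tests; inconclusive = above 50% with abnormal brightness, or retests that disagree; inactive = below 50% or failed in later tests; about a fifth of its hits are not listed in these tables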;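 note: calls also rest on retests at 20 µM and on dose response follow-up; controls were probe without protein and protein plus probe with vehicle; some compounds called inactive have numbers as strong as hits; many hits fall short of the cut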
Target sequence (P11940 whole entry, looked up): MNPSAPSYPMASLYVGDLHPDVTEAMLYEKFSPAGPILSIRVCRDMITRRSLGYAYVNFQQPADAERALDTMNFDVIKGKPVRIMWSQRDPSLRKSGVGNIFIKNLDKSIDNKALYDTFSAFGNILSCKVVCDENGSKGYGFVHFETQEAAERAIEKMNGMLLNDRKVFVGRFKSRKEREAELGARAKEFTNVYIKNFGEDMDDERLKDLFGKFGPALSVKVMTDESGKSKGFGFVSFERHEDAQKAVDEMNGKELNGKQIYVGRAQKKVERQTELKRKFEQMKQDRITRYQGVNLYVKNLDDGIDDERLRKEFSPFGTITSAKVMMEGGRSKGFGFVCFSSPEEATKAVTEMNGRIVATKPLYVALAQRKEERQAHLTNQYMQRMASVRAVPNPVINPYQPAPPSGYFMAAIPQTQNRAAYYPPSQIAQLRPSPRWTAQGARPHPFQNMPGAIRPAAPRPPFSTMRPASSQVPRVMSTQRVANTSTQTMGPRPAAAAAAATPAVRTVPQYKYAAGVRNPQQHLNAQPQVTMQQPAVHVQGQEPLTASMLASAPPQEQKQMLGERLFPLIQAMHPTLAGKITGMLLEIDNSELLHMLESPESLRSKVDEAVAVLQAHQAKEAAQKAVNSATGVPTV
eIF4H FP inh retest = recorded beside eIF4H FP inh, whose call it bears; inhibition, %; compound at 20 µM; confirmation average;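 mean of two retest wells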
PABP FP inh retest = recorded beside PABP FP inh, whose call it bears; inhibition, %; compound at 20 µM; confirmation repeats;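 mean of two retest wells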
MT1-MMP act inh RFP = further read-out of MT1-MMP act inh, marked with its call; RFP signal change, %; measured here: RFP expression control read;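 0 = vehicle wells; hits needed this value within 50% of zero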
The depositor's hits bear a star; i = inactive; ? = inconclusive; / = no result given; & = joins results of further samples; [ ] = dose if it differs, or a comment.

SMILES	MT1-MMP act inh	MT1-MMP act inh RFP	eIF4H FP inh	CSC inhib	Yeast UUG start	Env fusion inh	Rce1 inh	PABP FP inh	others
CN(C(=O)CSc1nc(O)cc(=O)n1-c1ccccc1F)c1ccccc1	-7	4	-7	-3	-3	65*	i	-6
CCN(CC(=O)NC(=O)NCc1ccco1)Cc1nc2ccccc2c(=O)[nH]1	2	6	5	-7	-13	/	i	14
O=C(CNC(=O)N1CC(=O)Nc2ccccc21)Nc1ccc(Cl)cc1	3	0	-5	-13	-15	4	i	14
COc1ccc(/C=C/C(=O)C2CC2)cc1COc1cccc(C)c1C	-10	-9	24	44	-25	1	i	1
Cc1ccccc1-c1cc(C(=O)Nc2nc3c(s2)CCCC3)c2ccccc2n1	-13	-19	-13	6	1	25	i	5
Cc1cccc(NC(=O)c2ccc3c(c2)CCN3S(C)(=O)=O)c1C	0	0	-3	-7	-3	17	i	6
COc1ccc(-c2ccc3[nH]c4c(c3c2)CCN2C(=O)[C@@H]([C@H](C)O)[C@@H](N(C)C(=O)Nc3ccc(F)cc3)C[C@@H]42)cc1	-8	-9	/	/	-4	4	/	/
CCN(CC)P(=O)(C(NC(=O)OC)C(F)(F)C(F)(F)C(F)(F)C(F)F)N(CC)CC (stereo unspecified)	-6	-5	-4	-5	-5	/	i	-11
CCOc1ccc(-n2nc3ccc(NC(=O)CC)cc3n2)cc1	0	-2	19	-12	-4	-4	i	1
Nc1nc(F)cc(N2CCCCCC2)n1	-3	1	4	-8	/	7	i	?
O=C(COc1cccc(C(F)(F)F)c1)NCC(c1ccco1)N1CCCC1 (stereo unspecified)	-5	2	/	-4	-4	/	/	/
CN(C)c1ccc(C=C2C=C(c3ccccc3)OC2=O)cc1	3	-2	/	/	-16	-32	/	/
CC(C)(C)c1cc(C(=O)N/N=C/c2ccc([N+](=O)[O-])s2)n[nH]1	11	-9	23	-2	-21	12	i	7
CCOc1ccc(S(=O)(=O)Nc2cc(S(=O)(=O)N(CC)CC)ccc2N2CCCC2)cc1	-7	-4	-4	-2	/	-38	i	1
O=C(c1ccc(CS(=O)(=O)c2ccccc2)o1)N1CCOCC1	4	2	-3	-6	-8	7	i	-2
CN(C)CCN(C(=O)C1=COCCO1)c1nc2ccc(F)cc2s1	-2	3	-5	5	-14	-6	i	-8
COC(=O)c1[nH]c(=O)c2ccccc2c1O	9	14	4	-4	-5	/	i	3
CCOc1ccc(NC(=O)Cc2nnc(SCC(=O)N3CCOCC3)n2C)cc1	1	4	-9	2	-15	-2	i	-12
COc1ccc(C(=O)NCCNC(=O)c2ccccn2)cc1	-2	2	-6	-2	-10	-13	i	0
O=C(CCc1nc(-c2ccccc2)no1)Nc1cc(C(F)(F)F)ccc1Cl	-2	1	7	14	5	40	i	-1
Cc1ccc(CNC(=O)CN(C)C2=NS(=O)(=O)c3ccccc32)cc1	-7	-13	/	-7	/	2	/	/
COc1cc(/C=C2/SC(=S)N(Cc3ccccc3)C2=O)cc(Cl)c1O	9	42	?	117*	-27	-13	i	?
Cc1ccc(O)c(C(CC(=O)NC(C)C)c2ccccc2)c1 (stereo unspecified)	-33	-46	-9	/	-14	-2	i	-4
CC(C)Nc1nc2nonc2nc1Nc1ccccc1	1	-14	-2	34	-13	36	i	6
O=C(Nc1ccc2c(c1)CCCN2C(=O)c1cccs1)c1c(F)cccc1Cl	7	1	-15	19	-7	6	i	7
CO/N=C/C1C(=O)NN=C1c1ccccc1 (stereo unspecified)	0	1	?	2	/	-12	i	93*	PABP FP inh retest=82*
COc1ccc(/C=N\NC(=O)/C(=C\Nc2nccc(C)n2)NC(=O)c2ccccc2)cc1	-5	1	-3	-11	-7	/	i	4
COc1ccc(S(=O)(=O)Nc2cccc3c2O[C@H](CN(C)C(=O)Nc2ccc(C(F)(F)F)cc2)[C@@H](C)CN([C@H](C)CO)C3=O)cc1	4	-3	/	/	0&-1	-6[16.7 µM]	/	/
Cc1ccc(/C=N/N2C(=O)C3C(C2=O)C2C=CC3C23CC3)o1 (stereo unspecified)	-3	4	-5	-19	-3	/	i	2
COc1ccc(-c2ocnc2C(=O)Nc2ccccc2N2CCCCC2)cc1	-4	-4	2	54	0	13	/	-11
COc1ccc(Cl)cc1NC(=S)N1CCN(c2ncccn2)CC1	1	-3	11	/	/	6	i	-11
COc1ccc(/C=N\NC(=O)COc2ccc(C(C)(C)C)cc2)cc1Cn1nc(C)cc1C	6	1	2	12	-17	/	i	2
Cc1onc(-c2ccccc2Cl)c1C(=O)N1CCN=C1SCc1cccnc1	1	5	3	-16	-24	-24	i	-8
CCc1nc2sc3c(=O)[nH]cnc3c2c2c1CSC(C)(C)C2	-3	-8	6	-18	-3	21	i	14
CNC(=O)c1c(NC(=O)CS(=O)(=O)c2ccc(Cl)cc2)sc(C)c1C	5	-6	/	9	10	10	i	/
Cc1ccc(/C=C(\NC(=O)c2ccc(C)cc2)C(=O)NCCCn2ccnc2)cc1	-1	5	4	0	-15	-3	i	?
CCCCN(CC)C(=O)c1ccc2c(c1)OCO2	2	7	-6	-9	/	/	i	11
COC(=O)C1=C(C)N(c2ccc(C)c(C)c2)/C(=C/c2ccco2)C1=O	-3	-20	18*	15	/	/	/	54	eIF4H FP inh retest=78*;PABP FP inh retest=24
CS(=O)(=O)N(Cc1ccccc1)c1ccc(C(=O)N2CCOCC2)cc1	3	14	-8	2	2	-83	i	2
COc1cc(C(=O)NC(=S)NCc2ccncc2)cc(OC)c1OC	11	-9	/	/	-20	-1	/	/

Continued (two carried over from the part before).
SMILES	MT1-MMP act inh	MT1-MMP act inh RFP	eIF4H FP inh	CSC inhib	Yeast UUG start	Env fusion inh	Rce1 inh	PABP FP inh	others
CS(=O)(=O)N(Cc1ccccc1)c1ccc(C(=O)N2CCOCC2)cc1	3	14	-8	2	2	-83	i	2
COc1cc(C(=O)NC(=S)NCc2ccncc2)cc(OC)c1OC	11	-9	/	/	-20	-1	/	/
CC1CCCC(C)N1CC(O)COCc1ccccc1 (stereo unspecified)	1	3	-4	-2	-2	15	i	-9
Cn1c(=NCC(O)COc2ccccc2)sc2ccccc21 (stereo unspecified)	4	5	-3	9	-20	/	i	-1
O=C(NCC(=O)N(c1ccccc1)C(C(=O)NC1CCCC1)c1cccnc1)c1ccco1 (stereo unspecified)	0	1	1	-2	16	-24	i	-1
CC1(C)Cc2c(cnn2-c2ccccc2)C(=O)/C1=N\NC(=O)c1ccccc1	3	-3	2	-7	4	/	i	26
CN(CCOc1ccccc1)C(=O)c1ccc(Cl)c(S(=O)(=O)N2CCCCC2)c1	8	-7	/	-22	-14	-148	/	/
Cc1cc(C)c2c(N)c(C(=O)Nc3c(C)n(C)n(-c4ccccc4)c3=O)sc2n1	1	6	-1	-9	-4	1	i	-11
O=C(N/N=C/c1ccccc1)c1cc(-c2ccc3c(c2)OCO3)n[nH]1	6	0	-6	30	-22	-14	i	-4
COc1cc(NS(=O)(=O)N2CCCC2)cc(OC)c1OC	7	-2	-10	-15	-2	/	i	0
CCOc1cc(N2CCOCC2)c(OCC)cc1NC(=O)c1ccc(OC)c(S(=O)(=O)N2CCOCC2)c1	2	-2	/	-14	/	-10	/	/
CCC(C)(C)NC(=O)CN(C(=O)CCC(=O)Nc1ccccn1)c1ccc2c(c1)OCO2	0	2	5	-7	-13	1	i	-7
Cc1c(OC(C)C(=O)NCc2ccncc2)ccc2c3c(c(=O)oc12)CCC3 (stereo unspecified)	2	-5	-4	10	-4	6	i	-2
OC(CN1CCOCC1)Cn1cnc2ccccc21 (stereo unspecified)	-1	4	10	-25	-6	-18	i	6
CC(C)NC(=O)c1ccc2c(c1)N(CC(=O)N1CCCC1)C(=O)C(C)(C)O2	3	2	-10	-11	-10	-6	/	-1
Cc1cccc(C)c1NC(=O)NN1C(C)CCCC1C (stereo unspecified)	0	-2	3	-1	/	-2	i	25
Cc1cc(C)nc(NC2=NCCN2C(=S)Nc2ccc(C)c(C)c2)n1	0	-1	-2	-1	/	5	i	4
Cc1ccc(C(=O)N/C(=C\c2cccc([N+](=O)[O-])c2)C(=O)Nc2cccc(C(=O)O)c2)cc1	3	4	-10	-2	-5	-11	i	6
O=C(Nc1ccccc1F)c1ccc2sc([C@H]3C[C@H](O)[C@@H](CO)O3)nc2c1	3	8	/	/	-11	-35	/	/
Cc1ccc(NC(=O)CNC(=O)c2ccco2)c(Cl)c1	0	2	-6	-8	-2	-16	i	-10
COc1ccc(C(C)=O)cc1CN(c1ccccc1OC)S(=O)(=O)c1cccs1	-4	-3	-5	-12	-10	17	i	-9
Cc1ccc(Sc2ncccc2C(=O)O)c(C)c1	2	2	-7	-8	4	-3	i	14
O=C(Nc1ccn(CCCNCCc2ccccn2)c(=O)n1)OCc1ccccc1	5	6	/	/	-10	-9	/	/
Cc1nc(N2CCN(c3ccccc3)CC2)nc2c1C(=O)CCC2	2	-1	0	0	0	-3	i	2

Entries from the list above that contain a Cl atom:
SMILES	MT1-MMP act inh	MT1-MMP act inh RFP	eIF4H FP inh	CSC inhib	Yeast UUG start	Env fusion inh	Rce1 inh	PABP FP inh	others
O=C(CNC(=O)N1CC(=O)Nc2ccccc21)Nc1ccc(Cl)cc1	3	0	-5	-13	-15	4	i	14
O=C(CCc1nc(-c2ccccc2)no1)Nc1cc(C(F)(F)F)ccc1Cl	-2	1	7	14	5	40	i	-1
COc1cc(/C=C2/SC(=S)N(Cc3ccccc3)C2=O)cc(Cl)c1O	9	42	?	117*	-27	-13	i	?
O=C(Nc1ccc2c(c1)CCCN2C(=O)c1cccs1)c1c(F)cccc1Cl	7	1	-15	19	-7	6	i	7
COc1ccc(Cl)cc1NC(=S)N1CCN(c2ncccn2)CC1	1	-3	11	/	/	6	i	-11
Cc1onc(-c2ccccc2Cl)c1C(=O)N1CCN=C1SCc1cccnc1	1	5	3	-16	-24	-24	i	-8
CNC(=O)c1c(NC(=O)CS(=O)(=O)c2ccc(Cl)cc2)sc(C)c1C	5	-6	/	9	10	10	i	/
CN(CCOc1ccccc1)C(=O)c1ccc(Cl)c(S(=O)(=O)N2CCCCC2)c1	8	-7	/	-22	-14	-148	/	/
Cc1ccc(NC(=O)CNC(=O)c2ccco2)c(Cl)c1	0	2	-6	-8	-2	-16	i	-10
